Rce1 inhib: inhibitors of yeast Ras-converting enzyme; 0.27% of 290,000 active; Q03530; yeast membranes, quenched prenylated peptide cleavage fluorescence; calls only;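 active = fall in fluorescence gain of 50% or more versus controls, with final raw signal at or below 3038400; inconclusive = same 50% fall but final raw signal above 3038400; inactive = fall in fluorescence gain under 50%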;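 note: plate controls were neutral control wells for no effect and wells lacking membranes for full effect; tested at 10 µM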
Target sequence (Q03530 whole entry, looked up): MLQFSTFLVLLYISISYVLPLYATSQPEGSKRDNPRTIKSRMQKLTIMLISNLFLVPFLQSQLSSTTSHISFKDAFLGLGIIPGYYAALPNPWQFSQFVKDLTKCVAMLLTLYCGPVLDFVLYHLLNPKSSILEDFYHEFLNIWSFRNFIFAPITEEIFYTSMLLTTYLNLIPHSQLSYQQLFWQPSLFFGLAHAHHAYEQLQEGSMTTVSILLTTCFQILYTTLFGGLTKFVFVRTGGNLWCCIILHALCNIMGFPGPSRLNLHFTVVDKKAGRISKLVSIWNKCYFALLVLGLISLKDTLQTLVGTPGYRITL
eIF4H inh: inhibitors of RNA binding by human eIF4H. eIF4H fluorescence polarization binding assay. 0.94% of 290,000 active. AID 2012. inhibition, % at 35 µM. Q15056;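 active = 50% or more with normal probe brightness, or confirmed in later tests; inconclusive = above 50% with abnormal brightness, or retests that disagree; inactive = below 50% or failed in later tests; about a fifth of its hits are not listed in these tables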;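 note: calls also rest on retests at 20 µM and on dose response follow-up; 0% = protein and probe with vehicle and 100% = probe without protein; strong numbers were not always called active; many hits fall short of the cut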
CSC inhib: cancer stem cell inhibition; AID 2717; inhibition, % at 7.5 µM; 1.1% of 300,000 active; cancer stem cell-like cells viability, luminescence;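 active = mean at 75% or more and at least half the replicates too; inconclusive = mean and replicates disagree; tested in HMLE shEcad cells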;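 note: 0% = median of negative and 100% = median of positive control wells; the first replicate is given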
Yeast UUG start: alters start codon recognition fidelity in yeast | AID 602363 | activity score, % at 18.7 µM | 0.13% of 350,000 active | S. cerevisiae UUG-firefly luciferase reporter, luminescence/redox ratio;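 active = replicate mean at a twofold rise or more, about +100% in these data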;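 note: firefly luciferase made from a UUG start codon reports start codon fidelity; reporter light over untreated wells divided by growth signal over untreated wells; some hits fall short of that in this replicate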
PABP polyA inh: blocks human PABP binding to poly(A) RNA. inhibition, % at 35 µM. fluorescence polarization. 1% of 290,000 active. P11940;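 active = 50% or more with normal probe brightness, or confirmed in later tests; inconclusive = above 50% with abnormal brightness, or retests that disagree; inactive = below 50% or failed in later tests; about a fifth of its hits are not listed in these tables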;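 note: calls also rest on retests at 20 µM and on dose response follow-up; controls were probe without protein and protein plus probe with vehicle; some compounds called inactive have numbers as strong as hits; many hits fall short of the cut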
Env fusion inh: blocks HIV Env-driven cell-cell fusion | inhibition, % at 12.3 µM | 1.1% of 360,000 active | HeLa-JRFL Env/CEM21 cell fusion, luciferase;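 active = mean replicate inhibition score of at least 50 and every replicate individually at or above 50; inconclusive = only one of the two criteria met; inactive = mean below 50 and not all replicates reaching 50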;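 note: 0% = plate neutral controls and 100% = maraviroc near 300 nM; one replicate is shown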
MT1-MMP act inh: inhibitors of human MT1-MMP activation. 0.061% of 360,000 active. HT1080 RFP-PRO-GFP cells, GFP/RFP ratio fluorescence, overnight; percent of plate control window, DMSO zero. AID 651647. GFP/RFP ratio change, % at 20 µM. P50281;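 active = GFP/RFP ratio change of at least 30% with cell ATP level not reduced by more than half and red fluorescence within 50% of control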; note: strong numbers were not always called active
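Compound: 20 µM single dose, 1% DMSO / System: HT1080 RFP-PRO-GFP cells / Controls: DMSO and RFP-L50D-GFP cell wells / Read-out basis: GFP/RFP fluorescence ratio / Schedule: overnight compound exposure at 37 °C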
eIF4H inh retest: recorded beside eIF4H inh, whose call it bears; inhibition, %; compound at 20 µM; confirmation average;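 mean of two retest wells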
PABP polyA inh retest: second read-out of PABP polyA inh, no call of its own (marks repeat the call); inhibition, %; compound at 20 µM; confirmation repeats;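 mean of two retest wells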
MT1-MMP act inh RFP: further read-out of MT1-MMP act inh, marked with its call; RFP signal change, %; measured here: RFP expression control read;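 0 = vehicle wells; hits needed this value within 50% of zero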
* hit, by the source's call; i = inactive; ? = inconclusive; . = no result given.

SMILES | Rce1 inhib | eIF4H inh | CSC inhib | Yeast UUG start | PABP polyA inh | Env fusion inh | MT1-MMP act inh | MT1-MMP act inh RFP | others
C#CC[N+](CC)(CC)CC#Cc1ccccc1 | . | -5 | 15 | -28 | 1 | 7 | -5 | 2
CCCCCCCNC(=O)C1CC(=O)N(C)C(=Nc2ccc(OC)cc2)S1 (stereo unspecified) | i | -3 | 2 | . | 10 | . | -2 | -4
COc1ccc(NC(=O)C2CCCO2)c(OC)c1 (stereo unspecified) | i | -4 | -10 | -6 | -7 | -1 | 0 | -2
COc1ccc(CCNC(=O)CN2C(=O)C3(OCCCO3)c3ccccc32)cc1OC | i | -1 | -1 | -2 | 0 | -19 | 1 | 1
COc1ccc(CNC(=O)c2cccc3c(-c4cccc(C(N)=O)c4)coc23)cc1OC | . | . | . | 5 | . | 27 | 15 | -26
COc1cc(/C=N/Nc2nncc3ccccc23)cc(OC)c1OC | i | -8 | 0 | -12 | -2 | -37 | 5 | 3
CC(C)(C)C(=O)NC1=NN(c2c(Cl)cc(Cl)cc2Cl)C(=O)C1 | i | 5 | -17 | . | 7 | 10 | -3 | -2
COc1ccc(NC(=O)C2CC(=O)N(C(C)C)C2)cc1 (stereo unspecified) | i | -4 | . | -12 | -1 | . | -2 | 0
CCOc1ccccc1N1CCN(S(=O)(=O)c2ccc(Cl)s2)CC1 | i | -1 | 15 | -1 | 9 | 3 | -4 | -7
CCCCOCC1CN(c2ccccc2)C(=O)CS1 (stereo unspecified) | i | -4 | 5 | -8 | -1 | -53 | -5 | -1
Clc1cccc(N/N=C(\Cc2nc3ccccc3[nH]2)c2ccccc2)c1 | i | -2 | -5 | -18 | 3 | -465 | -7 | -9
COc1ccc(Cc2nc3ccc(C(=O)N(C)CC4COCCO4)cc3o2)cc1 (stereo unspecified) | i | -3 | 1 | -11 | 4 | -10 | -7 | 1
O=C(COc1ccc2ccccc2c1)NCC(=O)N/N=C/c1ccco1 | i | 40 | 7 | -16 | 34 | . | 0 | 2
CNS(=O)(=O)c1cc(N)ccc1C | i | 0 | -4 | . | -2 | 21 | 3 | 5
CN(C)S(=O)(=O)NC(=O)C1=C(N2CCCC2)COC1=O | . | . | . | -30 | . | 11 | 0 | 5
CC1CCCC(C)N1C(=O)CN1C(=O)NC2(CCCCCC2)C1=O (stereo unspecified) | . | . | . | -13 | . | -24 | 1 | 2
O=C(NCCc1ccc(Cl)cc1)C1CCCN1C(=O)Nc1ccc(F)cc1 (stereo unspecified) | i | 1 | -11 | -7 | -8 | 13 | -2 | -1
O=C(NCCC1=CCCCC1)C(=O)NCc1ccccc1Cl | i | 9 | 2 | . | 4 | . | 0 | 2
CC(C)Oc1ccc(/C=N/NC(=O)c2nnn(-c3nonc3N)c2CN(C)C2CCCCC2)cc1 | i | 1 | -1 | -14 | 5 | 19 | -2 | 1
Clc1ccccc1Cn1nc(-c2ccccc2)nc1-c1ccccc1 | i | 1 | -4 | -3 | -10 | -1 | -3 | -1
O=C(COc1ncnc2ccccc12)NC1CCCC1 | . | . | 4 | -9 | . | 7 | 1 | 0
CC(=O)Oc1ccc(N2C(=O)C3C(C2=O)C2(C)C=CC3(C)O2)cc1 (stereo unspecified) | . | -3 | 1 | . | 7 | . | . | .
COc1cccc(C(=O)N(Cc2nc(-c3cccc(C)c3)no2)C(C)C)c1OC | i | 10 | 7 | 0 | -2 | . | 1 | 0
COC(=O)c1ccc(Cn2nnc3ccccc32)cc1 | i | 3 | -3 | . | -3 | 8 | 3 | 0
O=C(Cn1c(NCCO)nc2ccccc21)c1ccc(Cl)cc1 | i | 2 | -1 | 1 | -5 | . | 9 | 3
COc1cccc(N(CC(=O)N2CCN(C)CC2)S(=O)(=O)c2ccc(C)cc2)c1 | i | -8 | -9 | -1 | -2 | . | -5 | -7
COc1ccc(NC(=O)N2CCOCC2)cc1 | i | 4 | -13 | -7 | 9 | -7 | 7 | 1
COc1ccc(-c2nnc(SCc3csc(N)n3)n2C)cc1 | i | -6 | -4 | -27 | 3 | -5 | -1 | 1
Cc1nc(NC(=O)c2csc3ccccc23)sc1C | i | 0 | 34 | -51 | -8 | -484 | -23 | -14
COc1ccc(NC(=O)CCN2CCN(S(=O)(=O)c3ccc(C(C)C)cc3)CC2)cc1 | i | -5 | 6 | -10 | 7 | 21 | -5 | -5
CCn1c(CNc2ccc(Cl)cc2)nnc1SCCN1CCCCC1 | i | -9 | 0 | -13 | 2 | . | 3 | 4
O=C(NCCNS(=O)(=O)c1cccc(C(F)(F)F)c1)c1cc(OCC(F)(F)F)ccc1OCC(F)(F)F | . | 0 | -16 | -7 | -4 | 5 | 0 | 0
c1ccc(N=NC2=NN(c3ccccc3)CS2)cc1 | . | . | . | -31 | . | -39 | 21 | 6
CC(C)OCCCNC(=O)c1cn(C)c2ccc(S(=O)(=O)N(C)C3CCCCC3)cc2c1=O | i | -14 | -15 | -15 | 7 | -1 | -1 | 1
CCOC(=O)c1oc2cc(O)c(CC)cc2c(=O)c1-c1cscn1 | i | 4 | -2 | 9 | 1 | -5 | 1 | 2
COc1ccc(/C=C2\SC(=O)N(CC(=O)Nc3ccc(O)cc3)C2=O)cc1OC | i | -4 | -9 | -5 | 3 | 8 | 7 | 6

Molecules above with a thiophene ring, fused or not, in the order listed:
SMILES | Rce1 inhib | eIF4H inh | CSC inhib | Yeast UUG start | PABP polyA inh | Env fusion inh | MT1-MMP act inh | MT1-MMP act inh RFP | others
CCOc1ccccc1N1CCN(S(=O)(=O)c2ccc(Cl)s2)CC1 | i | -1 | 15 | -1 | 9 | 3 | -4 | -7
Cc1nc(NC(=O)c2csc3ccccc23)sc1C | i | 0 | 34 | -51 | -8 | -484 | -23 | -14

Further records follow.
SMILES | Rce1 inhib | eIF4H inh | CSC inhib | Yeast UUG start | PABP polyA inh | Env fusion inh | MT1-MMP act inh | MT1-MMP act inh RFP | others
CC(C)(C)C(=O)Nc1ccccc1C(=O)Nc1ccccn1 | i | -4 | -12 | 6 | -6 | 4 | 2 | 4
C=CCNC(=O)c1nn2cccnc2c1Cl | i | 9 | 4 | 1 | 10 | . | 3 | 1
CC(C)C[C@H]1CN([C@@H](CC(C)C)CN2CCC[C@@H]2CN2C(=S)NC[C@@H]2Cc2ccc(O)cc2)C(=S)N1CCc1ccccc1 | . | . | . | -18 | . | ? | -1 | -7
COc1ccc(N(CC(=O)Nc2ccc(F)c(F)c2)S(=O)(=O)c2c(C)n[nH]c2C)cc1 | i | -4 | -11 | -19 | -4 | -4 | 0 | 3
CCCN1C(=O)CC(C(=O)OC)=C1C | i | -5 | -6 | -10 | 2 | -43 | -5 | 2
CCCc1[nH]nc2c1C(c1ccsc1)C(C#N)=C(N)O2 (stereo unspecified) | i | -8 | -2 | . | 2 | -9 | -1 | 1
C/C=C/c1cccc(-c2nc(C(=O)NC3CCC3)cc3c2[C@H](CCO)N(S(=O)C(C)(C)C)C3)c1 (stereo partly specified) | . | . | . | 4 | . | 11 | -4 | 4
Cc1ccc(S(=O)(=O)N2CC(O)CC2C(=O)OCC(=O)c2ccccc2Cl)cc1C (stereo unspecified) | i | -8 | -1 | 0 | 4 | 13 | 5 | 3
CCOc1ccccc1CNC(=O)C1CCN(C(=O)c2sccc2-n2cccc2)CC1 | i | 3 | -9 | . | -5 | . | 2 | -1
O=C(Nc1ccccc1)c1cc2n(n1)C(C(F)(F)F)CC(C1CC1)N2 (stereo unspecified) | i | -2 | 23 | . | -1 | -36 | 5 | 7
CCOC(=O)N1CCN(Cc2nc(-c3ccccc3)no2)CC1 | i | -17 | -10 | -18 | -13 | -20 | 6 | 2
O=C(NCCCn1ccnc1)c1cc(-c2ccncc2)nc2ccccc12 | i | -6 | -5 | -15 | 1 | 11 | -2 | -1
CC1=NN(C(N)=S)C(=O)C1N=Nc1ccccc1 (stereo unspecified) | i | -10 | -12 | . | 4 | -26 | 4 | -3
O=C(/C=C/c1cccs1)NC(=S)NNC(=O)Cc1cccs1 | i | 14 | 34 | -7 | -6 | . | 4 | -1
O=C(NC1CCC(=O)N(CCSc2ccccc2)CC1)OCc1ccccc1 (stereo unspecified) | i | 1 | 13 | 15 | 2 | -1 | 9 | -1
COc1cc(OC)cc(C(=O)NCC(=O)OCC(=O)NC(C)CCc2ccccc2)c1 (stereo unspecified) | . | . | -13 | 11 | . | . | -3 | 4
O=C(O)C1C2CCC(C2)C1C(=O)Nc1ccccc1 (stereo unspecified) | i | . | 2 | . | . | -5 | -1 | -3
COc1ccc(NC(=S)Nc2cc(-c3ccccc3)[nH]n2)cc1Cl | i | -4 | 49 | -26 | -9 | -93 | -4 | -11
O=C(O)c1cc(NC(=O)C2CCCO2)cc(C(=O)O)c1 (stereo unspecified) | i | 7 | -12 | 7 | 0 | 4 | -8 | -8
CCc1n[nH]c(=S)n1/N=C/C(C)=C\c1ccccc1 | i | -1 | -4 | -8 | 3 | 56* | -6 | -6
Cc1ccc(S(=O)(=O)NCC(=O)N(CC(=O)NCc2ccco2)Cc2cccs2)cc1 | i | -4 | -10 | 7 | -15 | . | 1 | 3
CCCS(=O)(=O)N1CCC(C(=O)NCc2ccc(F)cc2)CC1 | i | -4 | . | . | -4 | 11 | 3 | 4
COc1cc(/C=N/NC(=O)c2[nH]nc3c2CCc2ccccc2-3)ccc1O | . | -2 | 51 | -9 | 14 | 13 | . | .
Cc1cc(Cl)ccc1OCC(=O)Nc1cccc(S(=O)(=O)NC2=NCCCCC2)c1 | i | . | 7 | 2 | . | -14 | 4 | -4
Nn1c(COc2ccccc2)nc2ccccc2c1=O | . | -11 | 2 | -16 | -10 | . | 6 | 8
Cc1ccc(CNC(=O)c2ccc(OCC(C)C)cc2)n1C | i | 2 | -6 | -6 | -1 | -3 | -8 | -1
CCN(CC(=O)NCc1ccc(F)cc1)Cc1cc(=O)n2ccsc2n1 | i | -2 | -1 | 0 | -5 | 4 | -2 | 7
C#CCOCCOCCOCCNc1nc(N2CCN(C(=O)[C@H](C(C)C)n3cc(CCO)nn3)CC2)nc(N2CCN(C(=O)[C@H](Cc3ccc(O)cc3)n3cc(CCO)nn3)CC2)n1 | . | . | . | -18 | . | 3 | 2 | 4
COc1ccc(-n2nnnc2SCC(=O)Nc2ccccc2F)cc1 | i | 7 | -11 | -13 | -3 | -69 | 1 | 0
COc1ccc(Cl)cc1NC(=O)COC(=O)c1cc(C)oc1C | . | . | -5 | -18 | . | 2 | -1 | -3
COc1ccc(N(Cc2cc(=O)[nH]c3ccccc23)C(=O)c2ccco2)cc1 | i | -2 | -6 | -4 | 9 | -67 | -4 | 4
CCOC(=O)N/N=C\C=C\c1ccco1 | i | 85 | -5 | . | -6 | 11 | -2 | 4 | eIF4H inh retest=1;PABP polyA inh retest=6
O=C(CSc1cccc[n+]1[O-])Nc1cc([N+](=O)[O-])ccc1Cl | i | -2 | 2 | . | 11 | -17 | -2 | 0
Cc1ccc(-c2cnc3c(Cl)c(C)nn3c2)cc1 | i | -6 | 59 | -25 | -3 | -270 | 1 | -4
CC(C)NC(=O)C1(C)CCN1Cc1cccc(C#N)c1 (stereo unspecified) | . | . | . | -19 | . | -8 | -1 | 3
CCCn1nnc(NC(=O)Cc2ccc(Cl)cc2)n1 | i | -9 | 10 | 10 | -2 | . | 4 | 0
